BJeLR lethal = MLPCN primary cell-based screen for lethality selective to Ras in HRASV12 cells; hit rate 0.17% among 300,000; inhibition, % (test concentration not listed); BJeLR (HRASV12) viability, CellTiter-Glo ATP luminescence, 48 h; reference of the scale not given here; AID 1554, 2009;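 active means replicate mean above 50%; inconclusive means above 50% but judged a plate artefact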;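 further: 50 nL library stock added to about 25 µL; numbers are from one replicate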
Autofluor counter = counter-screen for toxin protease inhibitors: compound fluorescence; compound autofluorescence counterscreen, microsphere flow cytometry; active compounds read high; AID 624483; hit rate 3.1% among 360,000; fluorescence intensity (concentration not given with the values);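 active means at least 3 SD above the mean of all compounds, about 16000 in these data; inconclusive means too few beads counted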;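 further: 100 nL of 1 mM stock went into each well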
ugtP null kill = growth inhibition of ugtP-null S. aureus, primary screen, RN4220 ugtP deletion, OD600. 16 h; some inactives read as strong as hits. growth inhibition, % (no concentration beside the values). hit rate 0.54% among 330,000. AID 1259309, 2017;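 active means z-score under -3 and OD600 up to 0.15 on both plates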;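 further: plate controls were untreated wells for no effect and antibiotic for full effect; wells of about 80 µL received 100 nL stock; the first replicate is given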
PrP 5UTR inh = inhibition of PrP 5' UTR reporter expression | hit rate 0.35% among 340,000 | AID 488862, 2010 | cell-based PrP 5' UTR mRNA reporter, plate reader | inhibition, % (test concentration not listed);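 active means every replicate at 50% or more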;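 further: 0 = median of the neutral control wells; tested in H4 reporter cells; numbers are from one replicate; inactives centre near -14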
Mtb hypoxia rep = PubChem AID 1159583 | M. tuberculosis hypoxia-regulated fluorescent reporter, fluorescence | hit rate 0.1% among 300,000 | fluorescence inhibition, % (concentration not given with the values);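 active means 35 to 45% if threefold the growth effect, above 45% if 1.5-fold the growth effect; inactive means the rest, general growth blockers included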;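 further: wells of about 50 µL received 100 nL stock; 0% = vehicle wells and 100% = reference inhibitor wells; whole bacteria with a GFP reporter of the hypoxia response; strong numbers were not always called active; many hits fall short of the cut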
Sa RN4220 lethal = growth inhibition of S. aureus RN4220, primary screen, OD600; 16 h; inhibition, % (concentration not given with the values); hit rate 0.33% among 330,000; AID 1259311, 2017;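 active means z-score of -3 or lower and OD600 up to 0.18 on both plates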;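 further: plate controls were untreated cells for no effect and reference antibiotic for full effect; stock transfer was 100 nL into about 80 µL; one replicate is shown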
Mtb hypoxia rep growth = second read-out of Mtb hypoxia rep, no call of its own (marks repeat the call); growth inhibition, %; measured here: M. tuberculosis growth (absorbance);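 0% = vehicle and 100% = reference antibiotic; read after six days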
The depositor's hits bear a star; ? = inconclusive; / = no result given; & = joins results of further samples.

SMILES	BJeLR lethal	Autofluor counter	ugtP null kill	PrP 5UTR inh	Mtb hypoxia rep	Mtb hypoxia rep growth	Sa RN4220 lethal
Cc1ccc(CC(=O)Nc2ccncc2)cc1	12	2708	4	-20	0	1	0.6
Cc1ccc(C2NC(=S)NC3=C2C(=O)CC(C)(C)C3)cc1 (configuration not stated)	-6	2409	3	-23	11	8	5.0
O=C(CCn1c(=O)oc2ccccc21)N1CCc2ccccc21	-3	9138	0	-30	-6	6	3.8
O=C1NCC(c2ccccc2)N(CCc2cc(C(F)(F)F)cc(C(F)(F)F)c2)C1=O (configuration not stated)	/	/	0	/	-11	2	3.2
COc1ccc(C(=O)O)cc1S(=O)(=O)Nc1ccc(Oc2ccccc2)cc1	/	5310	3	-6	5	-5	-0.9
C=C1CC(OC2OC(CO)C(O)C(O)C2O)C2C(C)C(=O)OC2C2C1CC(O)C2C (configuration not stated)	/	/	-1&3	/	0&8	11&10	-1.0&4.0
Cc1cc(C)cc(N2C(=O)CC(n3ccnc3)C2=O)c1 (configuration not stated)	5	4716	1	-17	/	/	1.3
COC(=O)c1cc(C(=O)OCC(=O)NC2CCS(=O)(=O)C2)cc([N+](=O)[O-])c1 (configuration not stated)	-19	3818	2	-12	-2	6	4.5
O=C(O)c1ccc(Nc2nc(-c3cccnc3)cs2)cc1O	5	3256	19	-14	3	-6	6.1
CN(C)CCOC(=O)CC12CC3CC(C1)CC(CC(=O)OCCN(C)C)(C3)C2	-12	4235	-13	3	1	8	0.4
CC(=NNC(=O)C(c1ccccc1)c1ccccc1)c1ccc(O)cc1	/	/	-2	/	3	-7	1.5
Cc1nc(-c2ccc(O)c(O)c2)cs1	5	2755	-2	-32	0	-1	-6.6
CCCCCC1CC(CC(=O)O)C(=O)O1 (configuration not stated)	-1	3926	-1	-33	8	7	1.9
CCCOc1ccc(-c2c(C(=O)N/N=C/c3ccccc3OCC)nnn2-c2nonc2N)cc1	-13	5602	/	5	/	/	/
O=C(N/N=C/c1cccc2ccccc12)c1cc(C2CC2)[nH]n1	-4	5582	/	-18	/	/	/
O=C(O)CC1SC(=Nc2cccc(C(F)(F)F)c2)NC1=O (configuration not stated)	-2	2689	2	-28	/	/	1.3
O=c1c([N+](=O)[O-])c(N2CCOCC2)c2ccccc2n1Cc1ccccc1	0	4452	4	30	0	-2	22
N#C/C(=C\c1ccc(-c2ccccc2C(=O)O)o1)c1nc2ccccc2[nH]1	-2	3377	8	2	-6	4	6.9
CN(C(=S)Nc1cccnc1)c1ccc(O)cc1	0	2497	-4	5	-1	-1	2.2
CC(=O)C1=C(C)OC(N)=C(C#N)C1c1ccncc1 (configuration not stated)	1	2578	0	-20	/	/	1.3
Cn1ccsc1=NC(=O)c1cccc(C#N)c1	2	5933	-4	-30	-6	0	6.5
COC(=O)c1nonc1NCn1nnc2ccccc21	5	3209	-1	-7	10	1	5.5
N#CC1=C(N)N(c2ccccc2)C2=C(C(=O)CCC2)C1c1ccsc1 (configuration not stated)	-6	16252*	4	-8	-4	-5	5.1
O=C(CSc1nc2c(cnn2-c2ccccc2)c(=O)[nH]1)NC1CCS(=O)(=O)C1 (configuration not stated)	-4	2177	2	1	15	9	1.2
Cc1c(C(=O)OCC(=O)N2CC(C)OC(C)C2)oc2ccc(Br)cc12 (configuration not stated)	4	10916	0	-10	6	13	2.7
O=S(=O)(CCc1nc2ccccc2[nH]1)c1ccc(Cl)cc1	0	2439	/	-7	/	/	/
O=C(Cc1ccc(Cl)cc1)Nc1ccc(Br)cc1	4	3441	12	-24	1	9	0.1
O=C(CCSc1ccc(Cl)cc1)c1cccs1	5	3198	2	-12	5	12	-2.4
CN(C)C(=O)c1ccc(-c2nnc(OCc3nc4ccccc4n3C)c3ccccc23)cc1	/	4926	4	-21	10	1	2.6
CN(C)c1ccc(C(=O)OCC(=O)Nc2cccc(S(=O)(=O)N3CCCC3)c2)cc1	/	5963	12	3	3	8	5.7
CCOc1ccc(C2C(C(=O)c3ccco3)=C(O)C(=O)N2Cc2cccnc2)cc1 (configuration not stated)	2	9337	8	-35	13	2	5.4
CN(C)/C=N/c1sc2c(c1C#N)CCCC2	5	4495	/	-17	/	/	/
CCCCCCC(=O)c1c(C)[nH]c(C(=O)OCC)c1C	-10	8666	-15	-31	1	12	-3.3
O=[N+]([O-])c1nn(-c2ccc3c(c2)OCCO3)n(O)c1=NCc1ccc(F)cc1Cl	13	6295	7	-58	-2	4	1.3
CC(=O)NC(CC(=O)NC12CC3CC(CC(C3)C1)C2)c1ccccc1 (configuration not stated)	-7	8785	1	-22	-14	7	1.1
CC1CCCC(NC(=O)CCC(=O)c2ccc(F)cc2)C1C (configuration not stated)	11	3766	0	-12	0	16	2.0
NC(=O)c1oc2ccccc2c1NC(=O)C1COc2ccccc2O1 (configuration not stated)	9	4194	8	-49	-9	2	-0.3
Cc1nnc(NN=Cc2c[nH]c3ccccc23)[nH]c1=O	/	/	4	/	-3	6	1.8
COc1ccc(COC(=O)c2ccc(Br)c(S(=O)(=O)N3CCOCC3)c2)cc1F	-6	?	-1	-8	-4	10	-1.3
CC(=NNC(=O)CNC(=O)c1ccco1)c1ccc(Cl)cc1	/	/	-9	/	-11	-5	-6.9
CC1(C)CC(=O)C(N=Nc2ccc(Br)cc2)=C(O)C1	12	/	-5	/	-5	2	-1.8
Cc1ccc2nc(-c3ccc(NC(=O)CSc4nccc(=O)[nH]4)cc3)sc2c1	3	2660	/	-64	/	/	/
C=CCc1c(C)nc(SC)nc1Nc1ccc(C(C)=O)cc1	-1	3679	26	-31	/	/	-2.8
NC(=O)COC(=O)[C@@H]1CC(O)CN1S(=O)(=O)c1ccc2c(c1)OCCO2 (some centres not stated)	-4	4061	0	-93	14	-11	2.5
CCOC(=O)CSc1nnc(CNc2nc(-c3ccccc3)cs2)n1C	-2	2210	7	-26	/	/	0.5
CCOC(=O)c1c(C)[nH]c(C(=O)OCC(=O)Nc2ccccc2)c1C	/	6450	-6	-1	-10	-6	-1.1
COc1ccc(CCNC(=O)C2CC(c3ccc([N+](=O)[O-])cc3)=NO2)cc1 (configuration not stated)	-12	4055	-7	-24	-12	-5	3.6
CCCCC(CC(C)O)c1n[nH]c(=S)n1-c1ccccc1 (configuration not stated)	6	2299	1	-9	3	5	3.1
CCNC(=O)/C(=C/c1cccc([N+](=O)[O-])c1)NC(=O)c1ccc(C)cc1	-4	2584	/	-24	/	/	/
O=C1CC(=C2c3ccccc3-c3ccccc32)C(=O)N1CCN1CCN(c2ccccc2)CC1	4	19425*	-15	-19	-6	-7	-3.1

New compounds follow
SMILES	BJeLR lethal	Autofluor counter	ugtP null kill	PrP 5UTR inh	Mtb hypoxia rep	Mtb hypoxia rep growth	Sa RN4220 lethal
CCOC(=O)N1CCN(C(=O)C2CCN(S(=O)(=O)N3CCC4(CC3)OCCO4)CC2)CC1	4	4379	6	-14	2	-5	2.7
COc1cccc(C(=O)Nc2cc(NC(=O)c3ccco3)ccc2OC)c1	7	4089	-7	-18	19	3	4.5
c1ccc(CNc2nnnn2-c2ccccc2)cc1	9	4494	4	-20	16	13	4.0
COC(=O)c1ccccc1NC(=O)CC#N	-3	3743	0	6	/	/	4.4
COc1ccc(-c2c([C@H]3[C@@H]4C=CCC[C@@]4(C)C(=O)N3Cc3ccccc3)ccc3ccccc23)cc1OC	-5	3596	/	-9	/	/	/
O=S(=O)(c1ccc(F)cc1)N1CCCC1c1cccnc1 (configuration not stated)	-11	4483	-6	-24	-3	-8	-0.4
O=C(N/N=C/C(Cl)=C/c1ccccc1)c1cnccn1	-1	4307	/	-10	/	/	/
Cc1oc(-c2ccc(Cl)cc2)nc1CN1CCCC(C(=O)NCCCN2CCCC2=O)C1 (configuration not stated)	/	5378	7	-15	/	/	-3.4
COc1cc2c(cc1OC)C(c1ccc(Br)cc1)CC(=O)N2 (configuration not stated)	6	3386	7	-48	11	9	-1.5
C=CCNS(=O)(=O)c1ccc2c(c1)n(C)c(=O)n2C	3	4845	-2	-2	16	3	-0.1
O=C(c1ccc([N+](=O)[O-])cc1)N1CCCC1	-1	4256	4	-24	2	2	7.5
Cc1ccc2nc3c(cc(C(=O)NCCc4ccccc4)c(=N)n3CCCN3CCOCC3)c(=O)n2c1	-14	5599	9	-27	2	7	5.2
Cc1cc2nc3c(=O)[nH]c(=O)[nH]c3nc2c([N+](=O)[O-])c1N	/	3620	2	-18	-3	4	3.3
CCn1ccc(-c2ccccc2)c(C#N)c1=O	-11	3140	-10	-5	3	12	1.2
COc1ccc(C2NC(=O)c3sc4nc(C)c(C(C)=O)c(-c5ccc(Cl)cc5)c4c3N2)cc1 (configuration not stated)	2	3221	7	-5	4	-5	3.6
CCCCOc1ccc(NC2=NC3(CCCCC3)N=C(N)N2)cc1	-2	4822	-9	-22	/	/	-1.9
COc1ccc(OC)c(/C=N/c2c(-c3ccc(O)c(OC)c3)nc3ccccn23)c1	4	2569	/	-12	/	/	/
CCNc1nc(NCC)n2c(SCC(=O)Nc3ccc(NC(C)=O)cc3)nnc2n1	-2	6362	2	-6	0	6	1.8
COc1cccc(C(=O)Nc2ccc(NC(=O)C3CC3)cn2)c1	7	4903	7	-88	13	14	-0.2
CCOC(=O)N1CCN(S(=O)(=O)N2CCCC(C(=O)NCCc3ccc(OC)c(OC)c3)C2)CC1 (configuration not stated)	9	5030	4	-28	1	-3	2.2
CCN1C=C(Cc2ccc(OC)cc2)C2=C(C1)C(c1ccc(OC)cc1)C(C#N)=C(N)O2 (configuration not stated)	7	3035	-6	-8	/	/	-2.9
COc1ccc(C2=CC3=C(Br)C(=O)C(C)(OC(=O)C4CCCC4)C(=O)C3=CO2)cc1 (configuration not stated)	1	3773	/	-20	/	/	/
Cn1c(SCC(=O)NCc2ccco2)nnc1C1CCCC1	7	6342	1	-27	5	3	2.2
CCN(CC(=O)Nc1ccc(NC(C)=O)cc1)C(=O)Cc1coc2cc(C)c(C)cc12	4	7000	6	-27	1	2	3.1
O=C(Nc1ccc(F)cc1)c1cnc(-c2ccccc2)nc1-c1ccccc1	-4	18660*	-7	-21	1	-4	12
CC(C)(C)c1ccc(OCCC(=O)NCC(c2cccs2)N2CCOCC2)cc1 (configuration not stated)	5	6448	7	-3	12	0	6.5

A section taken from the entries so far, for reference:
SMILES	BJeLR lethal	Autofluor counter	ugtP null kill	PrP 5UTR inh	Mtb hypoxia rep	Mtb hypoxia rep growth	Sa RN4220 lethal
Cc1cc2nc3c(=O)[nH]c(=O)[nH]c3nc2c([N+](=O)[O-])c1N	/	3620	2	-18	-3	4	3.3
CCn1ccc(-c2ccccc2)c(C#N)c1=O	-11	3140	-10	-5	3	12	1.2
COc1ccc(C2NC(=O)c3sc4nc(C)c(C(C)=O)c(-c5ccc(Cl)cc5)c4c3N2)cc1 (configuration not stated)	2	3221	7	-5	4	-5	3.6
CCCCOc1ccc(NC2=NC3(CCCCC3)N=C(N)N2)cc1	-2	4822	-9	-22	/	/	-1.9
COc1ccc(OC)c(/C=N/c2c(-c3ccc(O)c(OC)c3)nc3ccccn23)c1	4	2569	/	-12	/	/	/
CCNc1nc(NCC)n2c(SCC(=O)Nc3ccc(NC(C)=O)cc3)nnc2n1	-2	6362	2	-6	0	6	1.8
COc1cccc(C(=O)Nc2ccc(NC(=O)C3CC3)cn2)c1	7	4903	7	-88	13	14	-0.2
CCOC(=O)N1CCN(S(=O)(=O)N2CCCC(C(=O)NCCc3ccc(OC)c(OC)c3)C2)CC1 (configuration not stated)	9	5030	4	-28	1	-3	2.2
CCN1C=C(Cc2ccc(OC)cc2)C2=C(C1)C(c1ccc(OC)cc1)C(C#N)=C(N)O2 (configuration not stated)	7	3035	-6	-8	/	/	-2.9
COc1ccc(C2=CC3=C(Br)C(=O)C(C)(OC(=O)C4CCCC4)C(=O)C3=CO2)cc1 (configuration not stated)	1	3773	/	-20	/	/	/
Cn1c(SCC(=O)NCc2ccco2)nnc1C1CCCC1	7	6342	1	-27	5	3	2.2
CCN(CC(=O)Nc1ccc(NC(C)=O)cc1)C(=O)Cc1coc2cc(C)c(C)cc12	4	7000	6	-27	1	2	3.1
O=C(Nc1ccc(F)cc1)c1cnc(-c2ccccc2)nc1-c1ccccc1	-4	18660*	-7	-21	1	-4	12
CC(C)(C)c1ccc(OCCC(=O)NCC(c2cccs2)N2CCOCC2)cc1 (configuration not stated)	5	6448	7	-3	12	0	6.5

Screens deposited in PubChem by several laboratories.
